Bioassay records as filed in PubChem.
Insulin prom inh = TRM-6 insulin promoter activity inhibition | TRM-6 cells (human fetal islet line), insulin promoter-eGFP reporter, imaging; reporter expression induced with tamoxifen | inhibition, % at 2 µM | hit rate 0.9% among 130,000 | AID 1273;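 active means inhibition above the mean plus 3 SD, with well images judged a real hit on visual review, cut at about 60% in these data, passing the limit was not always enough; inconclusive means inhibition over the cutoff but images rejected on review; inactive means inhibition not above the cutoff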
HSV replic up = HSV replication enhancement | HSV replication augmentation in cells, fold increase | maximum fold increase | hit rate 0.005% among 220,000 | AID 1956;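 active means peak rise of 1.5-fold or more in the series; inconclusive means self-fluorescent or not available for retest; tested in PC3 cells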;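 further: first round at 10 µM; read as green reporter fluorescence; hits show the peak of a series up to 25 µM; 1 = signal of infected wells without compound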
PKD1 kinase inh = PKD1 (human) kinase inhibition; Q15139; PKD1 kinase fluorescence polarization assay; inhibition, %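 (about 10 µM by stock and volumes)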; hit rate 0.056% among 200,000; AID 797;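 active means inhibition of 50% or more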;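 further: controls were vehicle for no effect and a reference inhibitor for full effect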
Target sequence (Q15139 whole entry, looked up): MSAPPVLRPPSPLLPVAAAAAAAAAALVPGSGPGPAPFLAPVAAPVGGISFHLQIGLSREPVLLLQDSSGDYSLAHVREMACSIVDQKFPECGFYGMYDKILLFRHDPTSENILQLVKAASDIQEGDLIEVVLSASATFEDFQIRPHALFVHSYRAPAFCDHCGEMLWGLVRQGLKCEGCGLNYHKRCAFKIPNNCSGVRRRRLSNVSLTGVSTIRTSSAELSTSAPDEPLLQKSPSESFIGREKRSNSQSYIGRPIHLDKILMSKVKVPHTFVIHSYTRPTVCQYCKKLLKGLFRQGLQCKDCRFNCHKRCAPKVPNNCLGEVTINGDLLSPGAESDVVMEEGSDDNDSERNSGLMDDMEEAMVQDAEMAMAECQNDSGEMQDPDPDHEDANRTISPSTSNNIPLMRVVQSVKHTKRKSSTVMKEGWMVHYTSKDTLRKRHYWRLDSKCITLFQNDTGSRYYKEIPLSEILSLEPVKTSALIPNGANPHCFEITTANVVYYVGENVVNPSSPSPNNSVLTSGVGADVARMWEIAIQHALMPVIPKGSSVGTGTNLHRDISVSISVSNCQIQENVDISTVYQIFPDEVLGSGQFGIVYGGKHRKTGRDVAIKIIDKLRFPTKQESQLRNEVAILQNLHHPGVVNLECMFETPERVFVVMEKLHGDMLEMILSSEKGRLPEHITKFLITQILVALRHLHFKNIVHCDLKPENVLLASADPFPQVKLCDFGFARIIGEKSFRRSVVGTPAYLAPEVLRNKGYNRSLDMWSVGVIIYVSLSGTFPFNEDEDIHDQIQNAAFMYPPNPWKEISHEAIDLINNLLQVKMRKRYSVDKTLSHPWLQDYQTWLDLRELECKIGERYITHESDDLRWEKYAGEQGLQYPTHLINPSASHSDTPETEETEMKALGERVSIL
RGS16-Gao = regulators of human RGS16-Galphao interaction. binding response (% of control), % at 10 µM. hit rate 0.38% among 220,000. bead-based flow cytometry RGS16-Galphao binding, fluorescence; actives lie on both sides;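 active means below 25% or above 175%, edge rows of some plates excepted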;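 further: Galphao activated by GDP with aluminum fluoride before binding; 100% = wells without compound and 0% = beads without RGS; some results beyond the cut were filed as inactive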
GALR2 ag = agonists of human galanin receptor 2 (GALR2); O43603; GALR2-expressing cells, agonist activation read-out; activation, %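 (tested at 5 µM)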; hit rate 0.48% among 140,000; AID 803;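 active means above mean plus 3 SD of all compounds, about 5% in these data, not always enough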;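 further: 0% = vehicle buffer wells and 100% = reference agonist at full effect; tested in CHO reporter cells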
Insulin prom inh cell count = also measured in Insulin prom inh; calls as there; normalized cell count, %; measured here: cell count, toxicity; reference of the scale not given here;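 cells exposed to compound for 48 h; stained nuclei by imaging scaled within each plate; lower means fewer cells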
HSV replic up primary fold = second read-out of HSV replic up, no call of its own (marks repeat the call); fold increase; compound at 10 µM; measured here: primary screen fold increase 10 uM; tested in PC3 cells;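 GFP signal in the first replicate; 1 = infected wells without compound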
The depositor's hits bear a star; i = inactive; ? = inconclusive; / = not tested or not shown.

Every second line gives: Insulin prom inh, Insulin prom inh cell count, HSV replic up, HSV replic up primary fold, PKD1 kinase inh, RGS16-Gao, GALR2 ag
1	CCOC(=O)c1cc(-c2ccc3c(c2)OCCO3)nc2c1c(C)nn2CCC#N
 : -6, 80, i, 1, 1, 111, 7.1*
2	O=C(NC1CCCCC1)c1cc([N+](=O)[O-])ccc1N1CCCCC1
 : -8, 120, i, 0.93, -21, 103, -2.4
3	Cc1ccc2c(c1)NC(=O)C(CC(=O)NCCCN1CCN(C3CCCCC3)CC1)O2 (stereo not drawn)
 : -14, 101, i, 0.93, -10, 111, -1.2
4	O=C(c1cc(-c2cccs2)nc2ccccc12)N1CCN(S(=O)(=O)c2ccccc2)CC1
 : -14, 79, i, 0.74, -6, 96, -1.3
5	Cc1ccc(-n2nnnc2-c2cccc(C)c2)cc1
 : /, /, i, 1, -5, 89, /
6	CC(=O)NC(=O)c1ccc(-c2ccc(Cl)cc2)o1
 : 10, 102, i, 0.86, -2, 102, 0.5
7	CC(Sc1nc(-c2ccccc2)cc(C(F)(F)F)n1)C(=O)NCCN1CCOCC1 (stereo not drawn)
 : /, /, i, 0.83, -11, 144, -1.1
8	CCOc1ccc(-c2cc(CCCC(=O)Nc3cccc(OC)c3)no2)cc1
 : /, /, i, 0.55, -6, 102, -1.7
9	CCCCC1OC2(C)OC(=N)C1(C#N)C(C#N)(C#N)C2c1ccccc1 (stereo not drawn)
 : 32, 134, ?, /, 3, 99, 0.1
10	Cn1c2ccccc2c2c(C(=O)N3CCN(C(=O)c4ccco4)CC3)cn(C3CCCCC3)c(=O)c21
 : -23, 77, i, 0.93, 1, 62, -1.0
11	COc1ccc(CCNC(=O)Cn2c(-c3nonc3N)nc3ccccc32)cc1OC
 : 11, 63, /, /, -4, 100, -1.1
12	CC(C(=O)O)N(C(=O)c1ccccc1)c1ccc(F)cc1 (stereo not drawn)
 : 5, 112, i, 0.93, -2, 96, /
13	Cc1cccc(N2CCN(C(=O)c3cc4ccccc4oc3=O)CC2)c1C
 : /, /, i, 1, 6, 103, -0.5
14	COc1ccc2nc(C(F)(F)Cl)c(C#N)c(N)c2c1
 : /, /, i, 1, /, 104, /
15	O=C(Nc1cccc2ncccc12)c1ccc(-c2ccc(Br)cc2)o1
 : 43, 123, i, 1.2, -2, 98, -1.9

Records listed above that bear a hit mark in GALR2 ag.
nr	SMILES	HSV replic up	HSV replic up primary fold	PKD1 kinase inh	RGS16-Gao	GALR2 ag
1	CCOC(=O)c1cc(-c2ccc3c(c2)OCCO3)nc2c1c(C)nn2CCC#N	i	1	1	111	7.1*

Compound profiles, as listed above. Screens in order: Insulin prom inh	Insulin prom inh cell count	HSV replic up	HSV replic up primary fold	PKD1 kinase inh	RGS16-Gao	GALR2 ag
Record of Cn1c2ccccc2c2c(C(=O)N3CCN(C(=O)c4ccco4)CC3)cn(C3CCCCC3)c(=O)c21 → -23	77	i	0.93	1	62	-1.0
Record of Cc1ccc2c(c1)NC(=O)C(CC(=O)NCCCN1CCN(C3CCCCC3)CC1)O2 (stereo not drawn) → -14	101	i	0.93	-10	111	-1.2
Record of CC(Sc1nc(-c2ccccc2)cc(C(F)(F)F)n1)C(=O)NCCN1CCOCC1 (stereo not drawn) → /	/	i	0.83	-11	144	-1.1
Record of CC(C(=O)O)N(C(=O)c1ccccc1)c1ccc(F)cc1 (stereo not drawn) → 5	112	i	0.93	-2	96	/
Record of CC(=O)NC(=O)c1ccc(-c2ccc(Cl)cc2)o1 → 10	102	i	0.86	-2	102	0.5

The list continues:
Every second line gives: Insulin prom inh, Insulin prom inh cell count, HSV replic up, HSV replic up primary fold, PKD1 kinase inh, RGS16-Gao, GALR2 ag
16	COc1cc(C2=NOC(C(=O)N3CCOCC3)C2)cc(OC)c1OC (stereo not drawn)
 : /, /, i, 0.86, 8, 101, -1.6
17	NC(=O)c1ccc2nc(NC(=O)c3ccc(N)cc3)sc2c1
 : 54, 86, i, 1.1, -3, 95, /
18	COCCOC(=O)c1c(NC(=O)CNC2CCCc3ccccc32)sc(C(N)=O)c1C (stereo not drawn)
 : /, /, i, 1, /, 101, /
19	O=C(NC(C(=O)N/N=C/c1cccnc1)c1n[nH]c(=O)c2ccccc12)c1ccccc1 (stereo not drawn)
 : /, /, i, 1.1, /, 100, /
20	O=C(Nc1cccc(Cl)c1)N1CCN(C2c3ccccc3-c3ccccc32)CC1
 : /, /, i, 0.87, /, 90, /
21	O=C(c1ccc(F)cc1)C1CCN(C(=O)c2ccncc2)CC1
 : /, /, i, 1.1, 16, 96, -1.2
22	c1ccc(-c2nc(-c3ccccn3)no2)cc1
 : /, /, i, 0.9, 5, 45, -2.9
23	Cc1cccc(-n2c(SCc3ccc(C#N)cc3)nnc2-c2c[nH]c3ccccc23)c1
 : -30, 105, i, 1, -10, 107, 2.0
24	Nc1c(C(=O)NCc2ccccc2)nnn1Cc1ccc(F)cc1
 : 57, 91, i, 0.88, -4, 115, -0.7
25	Nc1nc(NCC2CCCO2)nc(Nc2ccc(F)cc2)c1[N+](=O)[O-] (stereo not drawn)
 : -54, 172, i, 0.78, -3, 99, -0.2
26	CC1CCN(CC(=O)NCCc2ccc(F)cc2)CC1
 : /, /, i, 0.89, -4, 107, /
27	O=C(Nc1ccccn1)C1CCN(S(=O)(=O)c2cccc3nonc23)CC1
 : -83, 135, i, 0.94, 1, 102, -1.8
28	Cc1cc(C)nc(NC2=NC3CCCCC3N2)n1 (stereo not drawn)
 : 31, 154, i, 1.1, 0, 100, -1.4
29	CCN(C1CCCCC1)S(=O)(=O)c1ccc(OC)c(C)c1
 : 55, 101, i, 1.1, 2, 95, -0.1
30	CC(OC(=O)c1ccccc1NCc1ccco1)C(=O)Nc1ncc(Cl)cc1Cl (stereo not drawn)
 : -3, 108, i, 0.98, 9, 119, -0.7
31	CS(=O)(=O)c1ccc(C(=O)Nc2ccc(N3CCCCC3)cc2)c(Cl)c1
 : -14, 104, i, 0.93, 5, 104, /
32	Cc1cc(-c2ccc(NC(=O)[C@@H]3CCCC[C@@H]3C(=O)O)c(C)c2)ccc1NC(=O)[C@@H]1CCCC[C@@H]1C(=O)O
 : /, /, i, 0.98, 3, 101, /
33	O=C(Cc1ccccc1)Nc1ccc(N2CCCC2)cc1
 : -19, 24, i, 0.98, 4, 84, -8.0
34	C/C(=N/NC(=O)c1cn(-c2cccc(C)n2)cn1)c1ccc(C)cc1
 : 43, 72, i, 0.87, -10, 101, -2.7
35	CCS(=O)(=O)N1Cc2ccccc2CC1C(=O)Nc1nc2c(C)cccc2s1 (stereo not drawn)
 : -32, 102, i, 0.81, -3, 97, -1.7
36	S=C1NC2=C(CCCC2)C2(CCCCC2)N1
 : -19, 149, i, 1, -3, 108, 0.1
37	COc1ccccc1CNC(=O)C1Cc2ccccc2C(=O)O1 (stereo not drawn)
 : 30, 120, i, 0.84, -2, 102, /
38	O=C(CC1C(=O)NCCN1CC(c1ccccc1)c1ccccc1)NCCc1cn[nH]c1 (stereo not drawn)
 : /, /, i, 1, 10, 102, /
39	O=C(NCCc1csc(-c2ccccc2)n1)c1cccs1
 : /, /, i, 0.89, -15, 106, -1.5
40	CCOC(=O)C1CCCC(NS(=O)(=O)c2ccc(NC(C)=O)cc2)C1 (stereo not drawn)
 : -4, 88, i, 1, -7, 91, -1.3
41	COc1ccc2cnn(-c3ccccc3C)c(=O)c2c1OC
 : -6, 99, i, 0.93, 0, 99, -1.4
42	CCCS(=O)(=O)c1nc(S(=O)(=O)c2ccc(C)cc2)c(NCCN2CCOCC2)s1
 : -35, 106, i, 0.92, -15, 105, -0.4
43	c1ccc(CSc2ncnc3sccc23)cc1
 : -29, 91, i, 0.98, 1, 97, /
44	O=C(CCc1ccccc1)Nc1ccc(S(=O)(=O)N2CCOCC2)cc1
 : /, /, i, 0.95, /, 102, /
45	CCc1cccc(C)c1NC(=O)CN1C(=O)c2ccccc2S1(=O)=O
 : /, /, i, 0.9, -7, 63, -3.4

Entries shown so far with a nitro group on carbon (2):
Every second line gives: Insulin prom inh, Insulin prom inh cell count, HSV replic up, HSV replic up primary fold, PKD1 kinase inh, RGS16-Gao, GALR2 ag
2	O=C(NC1CCCCC1)c1cc([N+](=O)[O-])ccc1N1CCCCC1
 : -8, 120, i, 0.93, -21, 103, -2.4
25	Nc1nc(NCC2CCCO2)nc(Nc2ccc(F)cc2)c1[N+](=O)[O-] (stereo not drawn)
 : -54, 172, i, 0.78, -3, 99, -0.2

(next part)
Every second line gives: Insulin prom inh, Insulin prom inh cell count, HSV replic up, HSV replic up primary fold, PKD1 kinase inh, RGS16-Gao, GALR2 ag
46	CCOC(=O)c1nnsc1Nc1ccc(C)c(C)c1
 : 7, 93, i, 0.9, -11, 111, /
47	CN1/C(=C/C(=O)c2nc(S(C)(=O)=O)ncc2Cl)C(C)(C)c2ccccc21
 : /, /, i, 0.62, -2, 89, 4.5
48	Cc1ccc(C(C(=O)NC2CCCC2)N(C(=O)c2csnn2)C2CCCC2)o1 (stereo not drawn)
 : /, /, i, 0.98, 7, 97, -1.0
49	O=[N+]([O-])c1ccc(F)cc1OCc1nc(-c2cccs2)no1
 : 53, 101, i, 0.98, 0, 107, /
50	COC(=O)CSc1nc2[nH]ncc2c(=O)[nH]1
 : /, /, i, 0.99, -11, 100, /
51	CCOC(=O)C1=C(C)OC(N)=C(C#N)C1c1cc(SCC)oc1C (stereo not drawn)
 : 0, 128, i, 0.96, -1, 102, /
52	Cc1oc(-c2ccc(C(F)(F)F)cc2)nc1CN(Cc1ccccn1)C[C@@H]1CCC(=O)N1
 : /, /, i, 1, -1, 119, /
53	CSc1ncccc1C(=O)Nc1ccc(F)c(F)c1F
 : 50, 24, i, 1, 0, 100, /
54	CCC(=O)OCc1c(C(F)(F)F)nn(C)c1Sc1ccc(F)cc1
 : -30, 53, i, 0.85, -2, 74, -2.2
55	c1ccc(N2CCN(c3ncnc4scc(-c5cccs5)c34)CC2)cc1
 : -59, 112, i, 0.96, 8, 99, -0.7
56	CCc1ccc(OCC(O)CN2CCC(CN3C(=O)c4cccc5cccc(c45)C3=O)CC2)cc1 (stereo not drawn)
 : -52, 74, i, 0.93, 0, 99, 0.6
57	C=CCNC(=S)/C(=C(/[O-])c1ccc([N+](=O)[O-])cc1)[n+]1ccccc1
 : /, /, i, 1, -3, 96, /
58	O=C(NCCCN1CCOCC1)c1cc2c(s1)CCCC2
 : -70, 96, i, 0.88, -16, 103, 0.1
59	Cc1nc2c(cc1C(=O)N/N=C/c1ccc(O)c(O)c1)c(=O)n(C)c(=O)n2C
 : /, /, i, 1.1, -5, 81, 0.2
60	COc1ccc(NC(=O)C/C(C)=N/NC(=O)c2cnccn2)cc1
 : /, /, i, 0.87, -1, 95, /
61	Cc1cccc(NC(=S)/N=C(\N)Nc2nc(C)c3cc(C)ccc3n2)c1
 : /, /, i, 0.93, -1, 123, -2.5
62	COC(=O)/C(=C\Nc1cccc(Cl)c1C)c1ncc(C(F)(F)F)cc1Cl
 : 7, 49, i, 0.91, -3, 127, -3.3
63	Cc1nc(SCC(=O)NCc2cccs2)nc(C)c1C
 : -60, 133, i, 0.99, -5, 98, /
64	O=C(Nc1ccc(-c2noc(-c3ccccc3F)n2)cc1)c1cccs1
 : 14, 123, i, 1, -6, 106, 0.1
65	N/C(=N\OC(=O)CCCN1C(=O)c2ccccc2C1=O)c1ccccn1
 : 35, 111, i, 1.1, 8, 100, /
66	COc1ccccc1NS(=O)(=O)c1cccc(NC(=O)c2cc3ccccc3oc2=O)c1
 : 28, 108, i, 0.85, 3, 101, /
67	COc1ccc(-c2c(C#N)c(SCc3c(C)noc3C)nc3c2C(=O)CC(C)(C)C3)cc1
 : /, /, /, /, -7, 103, -1.2
68	Cc1cc(C)c2cc(CN(CC3CCCO3)S(=O)(=O)c3ccc4c(c3)OCCO4)c(=O)[nH]c2c1 (stereo not drawn)
 : /, /, i, 0.75, -7, 102, -0.6
69	Cc1nn(-c2ccccc2)c(C)c1NC(=O)COc1ccc(Br)cc1Cl
 : /, /, i, 0.75, -2, 99, 0.1
70	Cc1cccc(C)c1NC(=S)N(CCc1ccncc1)C(C)C
 : /, /, i, 0.8, -1, 96, /
71	O=C(N/C(=C\c1ccco1)C(=O)N1CCOCC1)c1ccco1
 : -12, 82, i, 1.1, -8, 101, /

2 compounds drawn at random from those above, as already listed:
Every second line gives: Insulin prom inh, Insulin prom inh cell count, HSV replic up, HSV replic up primary fold, PKD1 kinase inh, RGS16-Gao, GALR2 ag
9	CCCCC1OC2(C)OC(=N)C1(C#N)C(C#N)(C#N)C2c1ccccc1 (stereo not drawn)
 : 32, 134, ?, /, 3, 99, 0.1
47	CN1/C(=C/C(=O)c2nc(S(C)(=O)=O)ncc2Cl)C(C)(C)c2ccccc21
 : /, /, i, 0.62, -2, 89, 4.5
